# Source: PubChem
# PK Bst: pyruvate kinase (B. stearothermophilus) modulation; hit rate 1.2% among 51,000; partly purified Bacillus stearothermophilus pyruvate kinase, luminescence ATP production; ribose 5-phosphate activator present at AC10; Potency, µM; in the data active means potency below about 11 µM; inconclusive means mostly about 12 µM to 25 µM; inactive means weaker than that;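 the screen sought inhibitors and activators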;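 note: potency is the fitted concentration of half-maximal effect; scaled between full activation by ribose 5 phosphate and full inhibition by luteolin; about four in five hits inhibit and the cells do not say which; series up to 57 µM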
# YjeE inh: inhibitors of E. coli YjeE (TsaE). purified YjeE, fluorescence polarisation of a bound ADP probe. Potency, µM. hit rate 0.05% among 71,000; active = well fitted falling curve; inconclusive = weaker or top-dose-only fall, or a rising curve; inactive = flat or poorly fitted curve;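 note: top concentration of the series not given in the record; excess ADP was the control for the full effect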
#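 Fluorescence polarization of a BODIPY Texas Red–ADP probe (2 uM) bound to purified YjeE (10 uM) was read after 15 min room-temperature incubation with compounds. Loss of polarization marks inhibitors; ADP serves as titrated control.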
# Starred values were filed as active, the others as inactive; i = inactive; . = not tested or not shown. Some of the compounds tested; the hit share may differ from the screen's.
YjeE inh,PK Bst,Compound
i,>57,Cc1nonc1OCCn1nnnc1N
i,.,N#Cc1cccc(-c2cncnc2NCc2ccccc2)c1
i,>57,COc1ccc(NC(=O)CSC2CC(=O)N(c3ccc4c(c3)OCCO4)C2=O)cc1 (centres undefined)
i,.,O=C(c1ccc2snnc2c1)N1CCOCC1
i,>57,O=C(NCc1ccc(F)cc1)c1noc2c1CCCCC2
i,>57,CCCCn1nnnc1NCc1ccc(N2CCCC2)cc1
i,>57,COc1ccc(C)cc1NC(=O)CSc1nnc(-c2ccc(OC)c(OC)c2)n1N
i,.,CCc1nnc(SCc2ccc(OC)c(Br)c2)n1N
i,.,CC(C)c1ccc(NC(=O)NC2CCCCC2)cc1
i,>57,Cc1ccc(C(=O)NCC(=O)OCC(=O)c2c(N)n(C)c(=O)n(C)c2=O)s1
i,>57,Cc1ccc(S(=O)(=O)CC2CSc3nnc(C)c(=O)n32)cc1 (centres undefined)
i,>57,CCCCn1cnc2c1c(=O)n(C)c(=O)n2C
i,>57,COCCNC(=O)CN(C(=O)CCC(=O)Nc1ccccn1)c1ccc(F)cc1
i,.,O=C1CC(N2CCN(c3nc4ccccc4s3)CC2)C(=O)N1c1ccc(F)cc1 (centres undefined)
i,>57,O=C(CSC1=Nc2ccccc2C2=NC(CC(=O)NCc3ccco3)C(=O)N12)NCC1CCCO1 (centres undefined)
i,>57,COc1ccc(NCC(=O)Nc2ccc(Cl)cc2C)c(OC)c1
i,>57,O=C(NC1CCN(Cc2ccccc2)CC1)C1COc2ccccc2O1 (centres undefined)
i,>57,Cc1nccn1-c1ccc(C(F)(F)F)cc1NC=O
i,.,Cc1cc(Cl)ccc1OCc1nc(-c2ccc(O)cc2)n[nH]1
i,.,COc1ccc(CNc2nc(-c3ccoc3)nc3ccccc23)c(OC)c1
.,>25.6,CN1CCc2c(C#N)c(N3CCCCC3)nc(NCc3ccccc3)c2C1
i,>57,COc1ccc(N2C(=O)CC(N3CCN(S(=O)(=O)c4c(F)cccc4F)CC3)C2=O)cc1OC (centres undefined)
i,>57,CCOc1cc(C)c(S(=O)(=O)Nc2ccc(Cl)cn2)cc1C
i,.,O=S(=O)(c1ccccc1)N1CCC2(CC1)CN(c1ccccc1)C2
i,.,CCc1c2c(nc3cccc(OC)c13)OC(CC)C2 (centres undefined)
i,.,COCC(C)N=CC1=C(O)CC(C)(C)CC1=O (centres undefined)
i,>57,O=c1cc(CN2CCN(Cc3ccccc3)CC2)c2cc(Cl)ccc2o1
i,.,COc1ccc(C2CC(=O)N3CN(c4ccc(C)c(Cl)c4)CSC3=C2C#N)cc1OC (centres undefined)
i,.,O=C(O)CSc1n[nH]c(=O)[nH]c1=O
i,>57,CCCC(=O)Nc1c2c(nn1-c1ccc(OC)cc1)CS(=O)C2 (centres undefined)
i,>57,COc1ccc(C(=O)N2CCN(c3nc4cc(C)ccc4cc3C#N)CC2)c(OC)c1
i,.,Cc1cc(O)c(C(C)C)cc1CN1CCCCC1
i,.,O=C1C(C2=C(O)c3ccccc3C2=O)=Nc2ccccc21
i,>57,CCCOC(=O)C1=C(C)NC2=C(C(=O)CCC2)C1c1ccc(N(C)C)cc1 (centres undefined)
i,.,NC(=O)CSCc1cccc(Br)c1
i,>57,CCC(=O)Nc1cc(-c2nn3c(C)nnc3s2)ccc1C
i,>57,CCn1nnc(-c2ccccc2NC(=O)c2ccc(-n3cnnn3)cc2)n1
i,.,CCOc1ccc(N2C(=O)CC(Sc3nc(C)cc(C)n3)C2=O)cc1 (centres undefined)
i,>57,COc1ccc(CC(=O)N2CCN(C(=O)Cc3ccc(OC)cc3)CC2)cc1
i,>57,CSc1ncccc1C(=O)OCc1ccccc1
i,>11.4,O=C(O)c1ccc(CSCc2c(F)cccc2Cl)o1
i,i,COc1ccc(-c2cn3cc(Cl)ccc3n2)cc1OC
i,>57,CCOC(=O)CCc1c(C)nc2cc(C3CCCN(C(=O)OC(C)(C)C)C3)[nH]n2c1=O (centres undefined)
i,.,CC(C)[C@H](Nc1ncnc2nc[nH]c12)C(=O)O
i,.,COc1ccc(C(=O)N2CCC3(CCCN(c4ccncc4)C3)CC2)cc1
i,>57,CCOC(=O)Cc1c[nH]c2ccccc12
i,>57,CCCS(=O)(=O)N1CCCC(C(=O)NCCCOCC)C1 (centres undefined)
i,.,CCN(C(=O)c1sc(N)c(C#N)c1C)C1CCCCC1
.,>25.6,COC(=O)C(NC(=O)c1ccc(F)cc1)(Nc1nc(C)cs1)C(F)(F)F (centres undefined)
i,.,CCC(=O)n1nc(-c2ccc(OC)cc2)nc1N
i,>57,CCOc1ccc(-c2nnn(CC(=O)Nc3cc(OC)ccc3OC)n2)cc1OCC
i,>57,COc1cc(-c2c(C#N)c(N)nc3c2CCCC3)cc(OC)c1OC
i,>57,COCCn1nnnc1C(c1cc2ccc(OC)cc2[nH]c1=O)N1CCc2ccccc2C1 (centres undefined)
i,>57,CC1=C(C(N)=O)C(c2ccccn2)n2nc(SCc3ccccc3Cl)nc2N1 (centres undefined)
i,>57,COC(=O)c1ccccc1NC(=O)n1cc(C)cn1
i,.,CCCc1cc(=O)n2c(nc3ccccc32)[nH]1

# Next section:
YjeE inh,PK Bst,Compound
i,>57,N#CCCN(C(=O)CN1C(=O)NC2(CCCC2)C1=O)c1ccccc1F
.,>25.6,CC(=O)C1(C)OC(N)=C(C#N)C(c2ccccc2)C1(C#N)C#N (centres undefined)
i,>57,COC(=O)c1ccc(C2/C(=C(/O)c3ccc(OC)cc3)C(=O)C(=O)N2CC2CCCO2)cc1 (centres undefined)
i,>57,Cc1cc(C(=O)NCc2ccc(S(N)(=O)=O)cc2)cs1
i,.,COc1ccc(C(=O)c2coc3ccc(O)c(CN4CCCCC4)c23)cc1
i,.,Cc1ccc(S(=O)(=O)N=C2SCCCS2)cc1
i,.,COc1ccc(OC)c(NC(=O)CS(=O)(=O)Cc2nc(-c3ccccc3C)oc2C)c1
i,>57,COc1ccc(C2C(C#N)=C(/N=C/N3CCN(C)CC3)OC3=C2C(=O)CC(C)(C)C3)cc1OC (centres undefined)

# One compound at a time (already shown). Screens in order: YjeE inh, PK Bst
# N#CCCN(C(=O)CN1C(=O)NC2(CCCC2)C1=O)c1ccccc1F as listed: i, >57
# Cc1cc(C(=O)NCc2ccc(S(N)(=O)=O)cc2)cs1 as listed: i, >57
# Cc1ccc(S(=O)(=O)N=C2SCCCS2)cc1 as listed: i, .

# Remaining list, next part
YjeE inh,PK Bst,Compound
i,.,CC1CCN(C(=O)CSc2nc3c(cnn3-c3ccc(Cl)cc3)c(=O)[nH]2)CC1
.,>25.6,CC(C)CNC(=O)c1c(N)n(/N=C/c2cccnc2)c2nc3ccccc3nc12
i,.,COc1ccc(OC)c([C@H]2Nc3ccccc3NC3=C2C(=O)CC(C)(C)C3)c1Br
i,.,CC1CCCC(NC(=O)c2ccc3c(c2)N(Cc2ccccc2)C(=O)CS3=O)C1C (centres undefined)
i,>57,COc1ccc(-c2cc(C(=O)Nc3c(C)nn(Cc4ccc(Cl)cc4)c3C)no2)cc1
i,>57,CC(=O)N(CC(C)(C)CC=C(C)C)c1ccccc1
i,>57,Cc1onc(-c2c(F)cccc2Cl)c1C(=O)N1CCCc2ccccc21
i,>57,COc1ccc(S(=O)(=O)N(CC(=O)NCc2ccco2)c2ccccc2)cc1OC
i,.,CO
i,>57,C=CCC(O)(CCN1CCCCC1)c1ccccc1 (centres undefined)
i,>57,O=C(O)c1ccc(COc2ccc(Cl)cc2)o1
i,>57,CCOC(=O)c1nn(-c2ccccc2)c(C#N)c1NC(=O)c1nn(CC)cc1Br
i,>57,CN1CCC2(CC1)NC(=O)NC2=O
i,>57,O=C(COn1nnc2ccc(C(F)(F)F)cc21)Nc1nnc(-c2ccccc2)o1
i,.,N=c1ccn2c(n1)O[C@H]1[C@H](O)[C@@H](CO)O[C@H]12
i,>57,Cc1occc1C(=O)Nc1cc(C(F)(F)F)ccc1Cl
i,>57,COc1cccc(C2=NOC(C(=O)Nc3cccnc3)C2)c1 (centres undefined)
.,>25.6,CC1CN(c2oc(-c3cccs3)nc2C#N)CC(C)O1 (centres undefined)
.,>25.6,N#C/C(=N\O)c1nc(-c2ccccc2)cs1
i,>57,CCOC(=O)C1=C(c2ccccc2)Nc2ncnn2C1c1cc(OC)cc(OC)c1OC (centres undefined)
i,>57,CCN1CCCC1CNS(=O)(=O)c1cc(Br)cc2c1N(C(=O)C1CC1)CC2 (centres undefined)
i,.,Cc1ccc(C(=O)Nc2cccc(C(=O)O)c2)cc1S(=O)(=O)N1CCCCC1
i,>57,CCCCC(=O)Nc1cccc(NC(=O)c2ccc(Br)o2)c1
i,>57,CCOC(=O)C1(C)NC(c2cc(OC)c(OC)c(OC)c2)C2C(=O)N(CC)C(=O)C21 (centres undefined)

# Six neighbouring records from above:
YjeE inh,PK Bst,Compound
.,>25.6,N#C/C(=N\O)c1nc(-c2ccccc2)cs1
i,>57,CCOC(=O)C1=C(c2ccccc2)Nc2ncnn2C1c1cc(OC)cc(OC)c1OC (centres undefined)
i,>57,CCN1CCCC1CNS(=O)(=O)c1cc(Br)cc2c1N(C(=O)C1CC1)CC2 (centres undefined)
i,.,Cc1ccc(C(=O)Nc2cccc(C(=O)O)c2)cc1S(=O)(=O)N1CCCCC1
i,>57,CCCCC(=O)Nc1cccc(NC(=O)c2ccc(Br)o2)c1
i,>57,CCOC(=O)C1(C)NC(c2cc(OC)c(OC)c(OC)c2)C2C(=O)N(CC)C(=O)C21 (centres undefined)

# (more compounds)
YjeE inh,PK Bst,Compound
i,>57,CNc1nc(C)nc(-n2nc(C)cc2C)n1
i,>57,C=CCNc1sc(C(=O)c2cccs2)c(N)c1C#N
i,>57,c1csc(-c2nnsc2-c2nc3ccccc3[nH]2)c1
i,>57,CCOc1ccc(N2CC(C(=O)Nc3ccc(F)cc3F)CC2=O)cc1 (centres undefined)
i,>57,Cc1cc(C(=O)CSc2nnc(-c3ccco3)o2)c(C)n1-c1ccc2c(c1)OCCO2
i,>57,CCOC(=O)c1ccccc1NC(=O)c1ccccc1NS(C)(=O)=O
i,.,CCN1C(=O)c2ccccc2S(=O)c2ccc(C(=O)N3CCN(C(=O)c4ccco4)CC3)cc21 (centres undefined)
i,>57,Cc1ccc(N2CC(C)Cn3c2nc2c3c(=O)n(CC(=O)OCc3ccccc3)c(=O)n2C)cc1C (centres undefined)
i,.,O=S(=O)(NCCCCCCc1ccccc1)c1cccc2c(Cl)cccc12
i,.,COC(=O)c1ccc(NC(=O)Cc2ccccc2)cc1
i,.,CCCn1c(=O)c2ccccc2n2c(SCc3nc4ccccc4s3)nnc12
i,>57,CCCOc1ccc(-c2nnn(CC(=O)Nc3cccc(C(=O)OC)c3)n2)cc1
i,>57,CSc1ccc(S(=O)(=O)Nc2ccc(NC(C)=O)cc2)cc1
i,>57,CCOC(=O)Cc1nn(C)c(=O)c2ccccc12
i,>57,Cc1nc(N)sc1Cc1ccc2c(c1)OCO2
i,>57,Cc1cc(NC(=O)C(C)(C)C)no1

# Three entries already listed, arranged by length of the SMILES, largest number first.
YjeE inh,PK Bst,Compound
i,>57,COc1ccc(S(=O)(=O)N(CC(=O)NCc2ccco2)c2ccccc2)cc1OC
.,>25.6,N#C/C(=N\O)c1nc(-c2ccccc2)cs1
i,>57,CSc1ncccc1C(=O)OCc1ccccc1

# (next part)
YjeE inh,PK Bst,Compound
i,>57,O=C(c1ccc(Br)o1)N1CCN(c2ccccc2F)CC1
i,.,COCCN1C(=O)c2oc3ccccc3c(=O)c2C1c1ccc(OC)c(OC)c1 (centres undefined)
i,.,COCCNc1ncnc2ccc(-c3ccoc3)cc12
i,>57,COc1cc2c(=O)n(CC3CCCO3)c(=O)n(CC(=O)Nc3cccc(Cl)c3)c2cc1OC (centres undefined)
i,>57,OC(COc1ccc2ccccc2c1)CN1CCCC1 (centres undefined)
i,.,CC[C@H]1C2=C3C(CC[C@H]4C(OCc5ccc(F)cc5C(F)(F)F)OC[C@](C)([C@@H]34)N(C(=O)OC(C)(C)C)C2)C(COC(C)=O)C1COC(C)=O (some centres undefined)
i,>57,Cc1cccc(-c2nc(CSCC(=O)N3CCN(Cc4ccc5c(c4)OCO5)CC3)c(C)o2)c1
i,>57,COCCSc1nnc(NS(=O)(=O)Cc2ccccc2)s1
.,>25.6,CN(C)CCN(Cc1ccccc1)c1ccccn1
i,>57,CN(CC(=O)NCc1cccc(F)c1)C(=O)c1ccco1
i,>11.4,CC[N+](C)(C)Cc1ccccc1Br
i,>57,COC(=O)c1[nH]c2cc(OC)ccc2c1NC(=O)CN1CCOCC1
i,>57,O=C(O)CCCNCc1ccccc1F
i,>57,CCOC(=O)c1ccc(NC(=O)CN2CCc3ccccc3C2)cc1
i,.,C=CCc1ccccc1OCC(O)Cn1ccnc1C (centres undefined)
i,.,c1nc(NC2CCNCC2)c2cc(-c3ccoc3)ccc2n1
i,>57,CC1(C)Cc2ccccc2-c2nnc(SCC(=O)N3CCN(c4ccccc4)CC3)n21
i,.,CSc1oc(-c2ccco2)nc1S(=O)(=O)c1ccc(Br)cc1
i,>57,Cc1noc(C)c1S(=O)(=O)N1CCC(C(=O)N(C)Cc2ccccc2)CC1
i,.,C=CCOC(=O)c1sc(NC(=O)c2ccco2)nc1C
i,>57,CCc1ccc(N2C(=O)C3ON(c4ccccc4)C(c4ccco4)C3C2=O)cc1 (centres undefined)
i,.,OC(c1ccc2c(c1)OCO2)c1nccc2ccccc12 (centres undefined)
i,.,O=C(c1ccncc1)N1CCC2(CCCN(c3ccccc3)C2)CC1
i,>57,O=C(CCC1COc2ccccc2O1)N1CCCC1 (centres undefined)
i,.,CN(C)C(=O)c1ccc(-c2ccc3ncnc(NCCN4CCOCC4)c3c2)cc1
i,.,Cc1ccc(-c2nc(-c3ccccc3)no2)c(Cl)c1
i,.,O=C(CCC(=O)OCC(=O)c1ccccc1)NC1CCCCC1
